Screens: PubChem BioAssay, Johns Hopkins Ion Channel Center
KCNQ2 enhance: potentiators of rat KCNQ2 potassium channel; Potassium voltage-gated channel subfamily KQT member 2 (Rattus norvegicus), O88943; CHO-K1 KCNQ2, FluxOR thallium flux fluorescence; active compounds read high; B-score at 10 µM; hit rate 0.54% among 310,000;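 active = fluorescence ratio B-score at least 3 SD of library B-scores, with initial fluorescence B-score within 3 SD, cut at about 5.3 in these data; same plate scores as AID 2156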;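 note: B-score of peak minus minimum over baseline fluorescence ratio after K+ and Tl+ stimulus; positive B-score means potentiation of KCNQ2 with more thallium influx and brighter signal; only the inactives scoring about 0 or higher are listed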
Target sequence (O88943 whole entry, looked up): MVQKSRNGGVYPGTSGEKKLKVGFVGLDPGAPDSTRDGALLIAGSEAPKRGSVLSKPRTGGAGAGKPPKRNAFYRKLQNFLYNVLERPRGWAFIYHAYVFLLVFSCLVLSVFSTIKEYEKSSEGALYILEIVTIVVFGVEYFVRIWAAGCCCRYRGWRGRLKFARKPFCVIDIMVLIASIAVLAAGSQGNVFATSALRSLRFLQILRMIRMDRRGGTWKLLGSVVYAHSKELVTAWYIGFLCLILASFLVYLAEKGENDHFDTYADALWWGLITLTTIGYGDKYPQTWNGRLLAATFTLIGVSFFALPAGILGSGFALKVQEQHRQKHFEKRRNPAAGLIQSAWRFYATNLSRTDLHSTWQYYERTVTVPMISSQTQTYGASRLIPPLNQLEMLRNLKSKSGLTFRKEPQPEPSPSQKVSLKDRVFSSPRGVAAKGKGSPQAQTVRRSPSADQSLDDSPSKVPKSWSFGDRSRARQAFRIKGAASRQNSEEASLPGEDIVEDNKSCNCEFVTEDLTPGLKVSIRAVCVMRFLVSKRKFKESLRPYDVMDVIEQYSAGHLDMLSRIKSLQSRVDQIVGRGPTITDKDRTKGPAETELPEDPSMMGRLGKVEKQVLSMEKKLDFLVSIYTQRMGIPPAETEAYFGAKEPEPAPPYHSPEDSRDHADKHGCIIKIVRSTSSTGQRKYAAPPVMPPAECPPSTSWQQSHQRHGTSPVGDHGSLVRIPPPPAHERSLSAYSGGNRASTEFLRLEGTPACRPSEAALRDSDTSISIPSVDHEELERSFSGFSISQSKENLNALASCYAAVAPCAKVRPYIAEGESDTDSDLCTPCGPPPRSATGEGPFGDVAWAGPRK
KCNQ2 enhance baseline: recorded beside KCNQ2 enhance, whose call it bears; B-score; compound at 10 µM; measured here: initial fluorescence intensity artifact check;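 brightness before thallium and not channel activity; 0 = typical well and far values either way flag optical interference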
An asterisk follows results filed as active; nt = not tested or not shown. These rows are one share of the data, so the mix of outcomes need not match the whole.

KCNQ2 enhance	KCNQ2 enhance baseline	molecule
2.6	-1.3	CCOC(=O)c1cc(-c2cc3ccccc3o2)nc2c1c(=O)[nH]c(=O)n2CCOC
0.04	0.41	CCc1ccc(OC(=O)/C=C/c2ccco2)cc1
0.74	0.02	CCOc1ccc(NC(=O)N2CCC(c3nc4ccccc4[nH]3)CC2)cc1
0.51	0.37	Cc1ccc(S(=O)(=O)N2CCOCC2)cc1C(=O)OCC(=O)NC1CCS(=O)(=O)C1 (stereo not given)
0.94	-0.72	N#CC(C(=O)c1ccco1)c1ccccn1 (stereo not given)
0.74	-0.96	COc1ccc(N2CC(C(=O)N3CCC4(CC3)CC(=O)c3ccccc3O4)CC2=O)cc1 (stereo not given)
1.7	0.81	CCOc1ccc(CCNC(=O)c2nnn(CC(=O)Nc3ccccc3C)c2N)cc1OCC
12*	-2.2*	Cc1ccc(NC(=O)C(=O)NNC(=O)c2ccccc2C)cc1Cl
1	1.9	O=C(CCCOc1ccccc1)NCCc1ccccc1
0.98	0.5	CCOc1ccc2oc(C(=O)OC(C(=O)NC(N)=O)C(C)C)c(C)c2c1 (stereo not given)
0.65	1.6	CCCC(=O)Nc1ccc(NC(=O)c2ccco2)c(OC)c1
1.9	-0.13	COc1ccc(N2CCN(S(=O)(=O)CCNC(=O)CCCc3ccccc3)CC2)cc1
2.1	-0.04	CC(O)C1CCC2C3CC[C@H]4CC(O)CCC4(C)C3CC3(OCCO3)C12C (stereo not given in full)
1.4	0.05	O=C(c1ccncc1)N1N=C2CCCCCC2C1(O)C(F)(F)F (stereo not given)
1	-0.81	CC1CCCCC1NC(=O)C1CCN(S(=O)(=O)c2cccc3nsnc23)CC1 (stereo not given)
0.48	-0.9	Nc1nc(-c2cc(Cl)cc(Cl)c2OC(F)F)cs1
0.43	0.2	CC(=O)Nc1ccc(CN2CCN(Cc3ccc(F)c(F)c3)C(CCO)C2)cc1 (stereo not given)
0.51	-0.01	COc1ncnc2sc3c(c12)CCCC3
8.1*	1.8*	CCCCn1c(-c2csc(C(C)C)c2)n[nH]c1=S
1.1	-0.04	NC(=O)c1ccccc1OCC(=O)NS(=O)(=O)c1ccc(Cl)cc1
0.03	-0.61	CCOC(=O)CC1COCCN1Cc1cn(C)nc1-c1ccccc1F (stereo not given)
0.78	-0.93	N/C(=N\NS(=O)(=O)c1ccccc1)c1ccccn1
1.1	0.39	Cc1nc2ccccc2n1C1CCN(C(=O)Nc2ccccc2)CC1
0.07	-0.93	CCc1csc(CCNC(=O)C2CCC(=O)N(CCc3cccc(F)c3)C2)n1 (stereo not given)

Some of the entries so far, with two lines to a compound.
Each structure is followed by: KCNQ2 enhance | KCNQ2 enhance baseline
N#CC(C(=O)c1ccco1)c1ccccn1 (stereo not given)
→ 0.94 | -0.72
COc1ccc(N2CC(C(=O)N3CCC4(CC3)CC(=O)c3ccccc3O4)CC2=O)cc1 (stereo not given)
→ 0.74 | -0.96
CCOc1ccc(CCNC(=O)c2nnn(CC(=O)Nc3ccccc3C)c2N)cc1OCC
→ 1.7 | 0.81
Cc1ccc(NC(=O)C(=O)NNC(=O)c2ccccc2C)cc1Cl
→ 12* | -2.2*
O=C(CCCOc1ccccc1)NCCc1ccccc1
→ 1 | 1.9
CCOc1ccc2oc(C(=O)OC(C(=O)NC(N)=O)C(C)C)c(C)c2c1 (stereo not given)
→ 0.98 | 0.5
CCCC(=O)Nc1ccc(NC(=O)c2ccco2)c(OC)c1
→ 0.65 | 1.6
COc1ccc(N2CCN(S(=O)(=O)CCNC(=O)CCCc3ccccc3)CC2)cc1
→ 1.9 | -0.13
CC(O)C1CCC2C3CC[C@H]4CC(O)CCC4(C)C3CC3(OCCO3)C12C (stereo not given in full)
→ 2.1 | -0.04
O=C(c1ccncc1)N1N=C2CCCCCC2C1(O)C(F)(F)F (stereo not given)
→ 1.4 | 0.05
CC1CCCCC1NC(=O)C1CCN(S(=O)(=O)c2cccc3nsnc23)CC1 (stereo not given)
→ 1 | -0.81
Nc1nc(-c2cc(Cl)cc(Cl)c2OC(F)F)cs1
→ 0.48 | -0.9
CC(=O)Nc1ccc(CN2CCN(Cc3ccc(F)c(F)c3)C(CCO)C2)cc1 (stereo not given)
→ 0.43 | 0.2
COc1ncnc2sc3c(c12)CCCC3
→ 0.51 | -0.01
CCCCn1c(-c2csc(C(C)C)c2)n[nH]c1=S
→ 8.1* | 1.8*
NC(=O)c1ccccc1OCC(=O)NS(=O)(=O)c1ccc(Cl)cc1
→ 1.1 | -0.04
CCOC(=O)CC1COCCN1Cc1cn(C)nc1-c1ccccc1F (stereo not given)
→ 0.03 | -0.61

Continued.
KCNQ2 enhance	KCNQ2 enhance baseline	molecule
0.08	-0.07	CCOc1c(CNc2nnnn2C)cccc1OC
0.13	-0.84	CCc1cccc(CC)c1NC(=O)CN1CCc2cc(OC)c(OC)cc2C1
0.08	-0.07	CC(/C=C/c1ccco1)=N/NC(=O)c1ccc(C)nc1
1.3	0.82	Cc1ccc(/C=N/NC(=O)Cc2cccn2C)cc1
0.5	0.57	CCc1cc(=O)oc2cc(OC(C)C(=O)NCc3ccccn3)ccc12 (stereo not given)
0.89	-1	Clc1cccc(-c2nn3c(Cn4cnc5ccccc54)nnc3s2)c1
0.76	-1	O=C(N/N=C/C=C/c1ccccc1)c1cccnc1
5.5*	1.1*	CC1(C)C2CC=C(/C=N/NC(=S)NCCc3ccccc3)C1C2 (stereo not given)
0.67	-1.3	CCSc1nc2ccccc2c(=O)n1OCC(=O)OC
1.1	-0.22	Cc1nnc(SCCCOc2ccccc2)nc1C
2.6	-1.5	Cc1ccc(C)n1NC(=O)c1ccc([N+](=O)[O-])cc1
1.5	-0.77	CCn1c(CC(=O)Nc2ccccc2F)nnc1SCC(=O)NC1CCCC1
0.08	1.3	COCCN(CCOC)C(=O)CC(=O)N(CCOC)CCOC
0.84	-0.44	COC(=O)c1ccc(S(=O)(=O)N2CCCCCC2)cc1
0.03	-0.64	CCOc1cc(C(=S)N2CCOCC2)ccc1OC(=O)/C=C/c1ccc(OC)c(OC)c1
1.5	-1.9	Cc1nc2cc(C(=O)OCC(=O)N(CC(C)C)C3CCS(=O)(=O)C3)ccc2n1-c1ccccc1 (stereo not given)
0.03	-0.55	Cc1ccc(CN2C(=O)[C@H]3Cc4c([nH]c5ccccc45)C(C)(C)N3C2=O)cc1
1.5	0.76	COc1ccc(/C=C/C(=O)NC(=S)Nc2ccc(N3CCN(C(C)=O)CC3)cc2)cc1
0.94	0.29	Cc1nccc2[nH]c(=O)c(C(=O)NC3CCCCC3C)cc12 (stereo not given)
1.1	-0.79	CCN1CCN(c2ccc(NC(=O)c3ccc(C#N)cc3F)cc2Cl)CC1
0.19	-1.2	COc1ccc(C2C(C#N)=C(N)OC3=C2C(=O)CC(C)(C)C3)cc1OC (stereo not given)
0.19	-0.19	COCCCN1C(=O)C(=O)/C(=C(/O)c2ccc(OC(C)C)c(C)c2)C1c1ccncc1 (stereo not given)
0.27	-0.25	COc1ccccc1NS(=O)(=O)c1cccc(NC(=O)C2CC(=O)N(Cc3ccccc3)C2)c1 (stereo not given)
1.1	-1.6	Cc1cccc(NC(=S)NC(NC(=O)c2ccco2)C(Cl)(Cl)Cl)c1 (stereo not given)
0.5	-0.69	CC(C)C[C@@H](C(=O)O)N(Cc1cccc(CN([C@@H](CC(C)C)C(=O)O)S(C)(=O)=O)c1)S(C)(=O)=O
1.7	-0.8	Cc1cccc(CC(=O)N2CCC(n3nccc3NC(=O)C3CC3)CC2)c1
0.59	0.01	O=C(Nc1ccccc1)C1=C(N2CCOCC2)/C(=C/c2cccnc2)CC1
1.3	-1.1	O=C(/C=C/c1cccs1)Nc1cccnc1
0.72	1.3	O=c1[nH]c(N/N=C/c2ccccc2)nc2ccccc12
1.3	-0.26	CC(C)Cc1nc(SCC(=O)Nc2ccc(S(N)(=O)=O)cc2)n[nH]1
0.34	0.62	COCCNC(=O)C(c1ccc(Cl)cc1)N(C(=O)CCC(=O)Nc1ccccn1)C1CCCC1 (stereo not given)
0.69	0.13	Cc1ccc(Nc2nnc(SCC(=O)NC3CCS(=O)(=O)C3)s2)c(C)c1 (stereo not given)
0.78	nt	CCN(CC)Cc1cc(Nc2ccnc3cc(Cl)ccc23)ccc1O
0.85	0.79	CCCOc1cc(C)c(S(=O)(=O)NCCOC)cc1C
0.49	-2.2	COCCNC(=O)COc1ccc(N(C)S(=O)(=O)c2ccc3ccccc3c2)cc1
0.43	1	CCn1c(CSc2nncn2-c2ccc(OC)cc2)nc2cc(S(=O)(=O)N(C)C)ccc21
0.57	-1.6	Cc1ccccc1S(=O)(=O)Cc1ccc(C(=O)NCc2cccnc2)o1
0.26	-0.25	CCOC(=O)C1=C(C)N(CCCC(=O)O)C(=O)NC1c1ccc2ccccc2c1 (stereo not given)
0.03	-0.68	CC(=O)c1ccc(NC(=O)c2noc(C(C)C)c2[N+](=O)[O-])cc1
1.1	-0.45	CN1CCN2c3ncccc3Cc3ccccc3[C@@H]2C1
0.11	-0.05	Cc1ccc(NC(=O)CSc2nc3nc(C)cc(C)c3c(=O)[nH]2)cc1
0.21	0.05	COc1ccc(/C=N/NC(=O)c2cc(C)n(-c3ccccc3)c2C)cc1OC
0.34	-1.3	NC(=S)Nc1cccc2cccnc12
1.6	1.6	CCCNC(=O)C(Cc1ccccc1)NS(=O)(=O)c1ccc2c(c1)c(=O)n(C)c(=O)n2C (stereo not given)
0.07	-0.68	CCC(=O)NC(=S)Nc1ccc(NC(=O)COc2ccc(Cl)c(C)c2)cc1
0.02	0.72	CC(=O)c1cccc(NC(=O)Cn2cnc(S(=O)(=O)N3CCc4ccccc43)c2)c1
1.3	-0.3	COc1ccc(CNC(=O)C/C(C)=N/NC(=O)c2ccccc2OC)cc1
2.2	-1.4	CCOC(=O)N1CCN(c2ccc(C(C)=O)cc2F)CC1C (stereo not given)
1.4	-1.7	CCOCC(=O)Nc1ccc(Br)c(C)c1
0.77	1.6	Cc1noc(C)c1COC(=O)c1ccccc1NC(=O)Cc1ccccc1
2.4	0.03	Cc1ccc(OCc2cc(C(=O)NC(C)Cc3cccc(C)n3)no2)cn1 (stereo not given)
1.3	-0.53	O=C(NCCN1C(=O)S/C(=C\c2cccnc2)C1=O)C1CC(=O)N(Cc2ccco2)C1 (stereo not given)
1.8	-1.1	COCCN(C(=O)CNC(=O)c1cccs1)C(C(=O)NC1CCCC1)c1cccs1 (stereo not given)
1.7	1.2	COCCSc1ccccc1C(=O)Nc1ccccc1C#N
0.03	0.07	NCCCNc1ccc([N+](=O)[O-])cc1C(F)(F)F
0.07	-0.15	COc1cccc2c1C(=O)c1ccc3ccccc3c1C2=O
0.57	0.07	CC(C)=CCc1c2c(c(O)c3c(=O)c4c(oc13)-c1cc(O)c(O)cc1OC4C=C(C)C)C=CC(C)(C)O2 (stereo not given)
1.3	-1.6	CC1(C)CC(=O)C(CC(=O)Nc2ccc(S(N)(=O)=O)cc2)=C(O)C1
0.12	0.13	CC(=O)Nc1cc(C(=O)NCc2ccco2)ccc1Sc1ccc(Cl)cc1
0.03	1	Cc1ccc(Cn2c(C(CO)Nc3nc(-c4ccc(Cl)c([N+](=O)[O-])c4)cs3)nc3ccccc32)cc1 (stereo not given)

Other entries:
KCNQ2 enhance	KCNQ2 enhance baseline	molecule
0.45	0.66	CN(C)S(=O)(=O)c1ccc(C(=O)Oc2coc(CSc3ncccn3)cc2=O)cc1
2.5	-1.4	CCCC(=O)N1CCN(c2nc3ccc(Br)cc3s2)CC1
0.39	-0.46	CCC(=O)N1CCc2cc(-c3csc(NC(=O)c4ccco4)n3)ccc21
1.9	-0.14	O=C(O)CCN1C(=O)/C(=C2\C(=O)N(Cc3ccc(F)cc3)c3ccccc32)SC1=S
0.52	-0.15	O=C(CSc1nnc(COc2ccccc2)o1)N1CCOCC1
0.69	-1.2	COc1ccc(/C=C/C(=O)OCC(=O)Nc2cccc(Oc3ccccc3)c2)c(OC)c1
0.8	-0.79	COc1ccc(NC(=O)CC(NCCc2ccccc2)C(=O)O)c(OC)c1 (stereo not given)
0.18	-2.5	COC(=O)CCS(=O)(=O)c1ccc(NC(C)=O)cc1
1.2	-0.66	Cc1ccc(-n2c(=O)[nH]c3c(oc4ccccc43)c2=O)cc1
0.55	0.66	CCN(CC)S(=O)(=O)c1ccc(C)c(NC(=O)COC(=O)C=C(C)C)c1
0.26	0.51	O=C(NCc1ccccc1)C1=C[C@H](c2coc3ccccc3c2=O)C[C@H](OCCCCO)O1
0.1	-0.16	O=C(Nc1ccccn1)c1cc2cc([N+](=O)[O-])ccc2s1
0.06	-1.2	COc1cc(O)c(C(CC(=O)N2CCCCC2)c2cc(OC)c(OC)c(OC)c2)c(OC)c1 (stereo not given)
0.85	-1.5	CCC1CCCCN1Cc1nc2c(c(=O)n(C)c(=O)n2C)n1Cc1cccc2ccccc12 (stereo not given)
0.55	3	NS(=O)(=O)c1ccc(CCNC(=O)C2Cc3ccccc3CN2C(=O)c2ccco2)cc1 (stereo not given)
1.5	-1.1	Cc1ccc(-n2c(CSc3nc(C)cc(C)n3)n[nH]c2=S)cc1
0.03	-0.27	Cc1ccccc1C(=O)c1cccn1CC(=O)NCC1CCCO1 (stereo not given)
0.79	-0.75	COCCC(=O)N1CCC(Oc2ccc(C(=O)NC3CCOC(C)(C)C3)cc2)CC1 (stereo not given)
1.3	-0.08	CNS(=O)(=O)c1ccc(C)cc1
0.39	-0.97	C=CCNc1nc(-c2c(C)nc3ncccn23)cs1
0.76	-1.2	O=C(N/N=C/c1ccc(C(=O)O)cc1)C(=O)N1CCCCCC1
0.68	-0.77	O=C(/C=C/c1ccc2c(c1)OCO2)Nc1cccnc1
0.91	0.44	COc1ccccc1-c1nc(SCC(=O)Nc2ccccc2F)n[nH]1
0.39	0.29	CCOCCOCN(C#N)c1nc(OC)nc(N(C)C)n1
0.73	0.64	COc1ccccc1NC(=O)CN1C(=O)C(C)SC(C)C1=O (stereo not given)
0.41	0.23	CCOC(=O)N1CCc2c(sc3nc4n(c(=O)c23)N=C(C)CS4)C1
